AmpC inh no det: Promiscuous and Specific Inhibitors of AmpC Beta-Lactamase (assay without detergent). P00811. AmpC nitrocefin hydrolysis, absorbance 480 nm, no detergent; potencies from a single point are estimates. Potency, µM (top dose mostly 28.7 µM), inactives show at the top dose activity change, negative = inhibition. 71,000 tested, 1.8% active. AID 585, 2007; active = falling curve, for most hits resting on a single point; inconclusive = weak or doubtful change; inactive = flat or rising curve; further: % of control where 0% means no effect; about half of the hits show no inhibition at the top dose; a quarter of the inactives give rising signals
Target sequence (P00811 whole entry, looked up): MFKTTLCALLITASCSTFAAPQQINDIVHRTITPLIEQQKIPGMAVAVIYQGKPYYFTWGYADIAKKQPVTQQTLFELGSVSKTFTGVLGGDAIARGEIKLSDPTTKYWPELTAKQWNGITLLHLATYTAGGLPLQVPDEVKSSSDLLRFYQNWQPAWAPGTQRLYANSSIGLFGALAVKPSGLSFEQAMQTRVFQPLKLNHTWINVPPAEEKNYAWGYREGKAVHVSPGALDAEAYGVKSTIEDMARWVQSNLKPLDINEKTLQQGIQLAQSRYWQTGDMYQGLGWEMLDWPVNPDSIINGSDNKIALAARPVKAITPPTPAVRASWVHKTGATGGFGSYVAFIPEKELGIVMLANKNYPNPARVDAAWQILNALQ
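AmpC in 20 mM phosphate buffer pH 7.0 was preincubated 15 min at room temperature with compounds. Nitrocefin (800 uM stock) was then added and hydrolysis followed at 480 nm every 20 s for 4 min.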
Numbers without * were called inactive; ? = inconclusive; [ ] = remark or other dose. Potency means the concentration at half of the fitted maximal effect. Some of the compounds tested; count on the stated rates, not on these rows.

The first 5 records as a preview:
#	SMILES	AmpC inh no det
1	O=C(Cn1c(NCCO)nc2ccccc21)NCCc1ccccc1	2%
2	c1ccc2c(NC3CCCC3)nnc(NC3CCCC3)c2c1	8%
3	O=C(CCCc1nc2ccccc2s1)Nc1nccs1	-14%
4	COc1ccc(NC2=NCC(=O)N2c2ccccc2)c(OC)c1	4%
5	Cc1cc(NC(=O)c2cc(C3CC3)on2)no1	-20%

The listing, from the start:
#	SMILES	AmpC inh no det
1	O=C(Cn1c(NCCO)nc2ccccc21)NCCc1ccccc1	2%
2	c1ccc2c(NC3CCCC3)nnc(NC3CCCC3)c2c1	8%
3	O=C(CCCc1nc2ccccc2s1)Nc1nccs1	-14%
4	COc1ccc(NC2=NCC(=O)N2c2ccccc2)c(OC)c1	4%
5	Cc1cc(NC(=O)c2cc(C3CC3)on2)no1	-20%
6	CCCC1CCC(c2nc(-c3cccnc3)no2)CC1 (centres undefined)	39%
7	CCOc1cc(N2CCOCC2)c(OCC)cc1NC(=O)c1cc(-c2ccco2)nc2ccccc12	116%
8	CCN(c1cccc(C)c1)S(=O)(=O)c1cccc2nsnc12	5%
9	O=C(/C=C1\NC2(CCCC2)Cc2ccccc21)N1CCOCC1	100%
10	COc1cc(Cl)c(C)cc1NC(=O)CSc1nnc(-c2ccco2)n1CC(C)C	94%
11	COCCNC(=O)CSc1nc2ccccc2c(=O)n1-c1cccc(OC)c1	14%
12	CCCCCOC(=O)Cc1c(O)c2ccccc2n(C)c1=O	0%
13	COc1ccc(Cl)cc1NC(=O)COc1cccc(-n2cnnn2)c1	20%
14	CCOc1ccc2[nH]c(=O)c(CN(Cc3ccc(F)cc3)C(=O)N3CCCC3)cc2c1	60%
15	CCS(=O)(=O)N1CCC(C(=O)N2CCc3ccccc3C2)CC1	5%
16	Cn1c(=O)n(CCc2ccccc2)c(=O)c2c1nc1n2CCCN1Cc1ccccc1	82%
17	O=C(NCc1cccnc1)C1CCN(S(=O)(=O)N2CCC3(CC2)OCCO3)CC1	7%
18	COc1ccc(-c2nnc(SC(=O)N3c4ccccc4Sc4ccccc43)o2)cc1	-21%
19	O=C1c2ccccc2C(=O)N1Cc1nc(-c2ccncc2)no1	-14%
20	CCCCOC(=O)C1=C(C)Nc2ncnn2C1c1ccc(OC)c(OC)c1OC (centres undefined)	58%
21	CCSP1(=S)N=C(N2CCOCC2)C(C#N)=C2CCCN21 (centres undefined)	22%
22	COc1cc2[nH]c3c(N4CCN(c5ccccn5)CC4)ncnc3c2cc1OC	111%
23	CC(C)N(C(=O)COc1ccc(Br)cc1Cl)C(C)C	17%
24	COc1ccccc1-c1nc2n(n1)C(c1ccccc1Cl)C(C(N)=O)=C(C)N2 (centres undefined)	6%
25	CC1(C)CC(=O)C2=C(C1)N(c1ccccc1)C(N)=C(C#N)C2c1cccnc1 (centres undefined)	19%
26	CCCOc1c(OC)cccc1C1CC(=O)Nc2cc(OC)c(OC)c(OC)c21 (centres undefined)	46%
27	O=C1CCCCCC1C1(O)C(=O)Nc2ccccc21 (centres undefined)	-5%
28	Cc1ccc(CCNC(=O)CN2CCN(Cc3ccccc3F)C2=O)cc1	51%
29	Cn1ccnc1Sc1nnnn1-c1ccccc1	4%
30	OC(CNC1CCCCC1)c1ccccc1 (centres undefined)	-5%
31	CCN1C(=O)N(C)C2(c3ccccc3)N(C)C(=O)N(C)C12c1ccccc1 (centres undefined)	51%
32	COC(=O)c1c(-c2ccc(OC)c(OC)c2)csc1N	5%
33	Cc1cc(C)n(-c2ccc(C(=O)NCc3ccc4c(c3)OCO4)cc2)n1	5%
34	CC(=O)Nc1cccc(Oc2ccc(-c3noc(C)n3)cc2)c1	39%
35	Cc1ccc(Cn2c(SCC(N)=O)nc3c2c(=O)n(C)c(=O)n3C)cc1	40%
36	O=c1c2ccccc2nc(SCc2nc3ccccc3s2)n1Cc1ccco1	-11%
37	C(=C\CSc1nnnn1-c1ccccc1)/CSc1nnnn1-c1ccccc1	0%
38	CC(=O)Nc1ccc(S(=O)(=O)Nc2nnc(C3CCCCC3)s2)cc1	-15%
39	O=C(c1cnccn1)N1CCC2(CCCN(c3ccccn3)C2)CC1	26%
40	CCOCCCN1C(=O)CN(C2CCCCC2)C(=O)C1c1ccc(OC)c(OC)c1 (centres undefined)	30%
41	CCSCCNC(=O)c1cc(-n2cnnc2)ccc1Cl	5%
42	CCOc1ccc(NC(=O)C(C)Sc2nnc(C)n2C)cc1 (centres undefined)	-6%
43	CCN(CC)CCCC(C)NC1=NCCCCC1 (centres undefined)	-18%
44	Cc1ccc(C(=O)OCc2cn3ccccc3n2)cc1	9%
45	CCn1cc(SCC(=O)NCC2CCCO2)c2ccccc21 (centres undefined)	107%
46	Cc1ccc2nc(-c3ccccn3)cc(C(=O)NC3CCN(C)CC3)c2c1	20%
47	CCOC(=O)CC1=C(C(=O)OCC)C2(C(=O)Nc3ccccc32)C(C#N)=C(N)O1 (centres undefined)	12%
48	COc1ccc(C(=O)c2ccc(N3CCN(C4CC(=O)NC4=O)CC3)cc2)cc1F (centres undefined)	71%
49	CCOC(=O)Cn1cnc2c(nnn2-c2ccc(C)cc2)c1=O	20%
50	CCOC(=O)c1cc(-c2cccs2)nn1CCC#N	13%

Four entries from above, field by field:
[39] O=C(c1cnccn1)N1CCC2(CCCN(c3ccccn3)C2)CC1
  AmpC inh no det: 26%

[40] CCOCCCN1C(=O)CN(C2CCCCC2)C(=O)C1c1ccc(OC)c(OC)c1 (centres undefined)
  AmpC inh no det: 30%

[41] CCSCCNC(=O)c1cc(-n2cnnc2)ccc1Cl
  AmpC inh no det: 5%

[42] CCOc1ccc(NC(=O)C(C)Sc2nnc(C)n2C)cc1 (centres undefined)
  AmpC inh no det: -6%

Next section:
#	SMILES	AmpC inh no det
51	Cc1nc(SCc2ccccc2)c(C(F)(F)F)c(=O)[nH]1	3%
52	Nc1ncc(-c2cc3ccccc3oc2=O)s1	0%
53	COc1ccc(-c2nnc(CSc3ncnc4sc5c(c34)CCC5)o2)cc1OC	80%
54	CCN(Cc1ccccc1)C(=O)CC1Oc2ccccc2NC1=O (centres undefined)	11%
55	O=S(=O)(CCc1ccccc1)/N=C/c1cccs1	-5%
56	COc1cccc(NC(=O)CSc2nnc(-c3cc(C)n(-c4ccccc4)c3C)o2)c1	10%
57	O=C1c2cccc3cccc(c23)C(=O)N1c1cccnc1	-7%
58	Cc1ccc(S(=O)(=O)N2CCCC2C(=O)N(C)Cc2cccs2)cc1 (centres undefined)	19%
59	CCn1cc(C(C)(C)C)c(C#N)c1NC(C)=O	6%
60	C=CCn1c(N)c(C(=O)Nc2ccccc2OC)sc1=S	1%
61	CCOc1cc(CNc2ncnc3nc[nH]c23)ccc1OC	4%
62	O=C(Oc1ccccc1)N1CCC2(CC1)CCN(c1ccccn1)CC2	92%
63	O=C(O)CC(CNS(=O)(=O)c1ccccc1)c1ccccc1 (centres undefined)	6%
64	O=C(c1cc(C2CC2)on1)N1CCOCC1	1%
65	O=c1c2c3c(sc2n(CCN2CCCC2)c(=O)n1Cc1ccco1)CCCCC3	82%
66	CN(C)CC(O)COc1cc2ccccc2cc1C(=O)N1CCCCC1 (centres undefined)	11%
67	O=C(CSc1nncs1)N1c2ccccc2Sc2ccccc21	4%
68	C=C(C)[C@H]1[C@H]2OC(=O)[C@@H]1[C@]1(O)C[C@H]3O[C@]34C(=O)O[C@H]2[C@@]14C	-11%[12.8 µM]
69	COc1ccc(Cl)cc1NC(=O)c1ocnc1C	-4%
70	CCN(CC)C(=O)CSc1nc(O)cc(=O)n1CC	-4%
71	O=C(c1ccco1)N1CCN(C(=O)c2ccc(COc3ccc(F)cc3)o2)CC1	59%
72	O=C(c1csnn1)N1CCC2(CC1)CN(Cc1cc(C(F)(F)F)cc(C(F)(F)F)c1)C2	8%
73	CC(=O)Nc1c(I)c(C(=O)N[C@H]2[C@@H](O)[C@H](O)[C@H](CO)O[C@@H]2O)c(I)c(N(C)C(C)=O)c1I	-9%[12.8 µM]
74	COc1ccc(-c2nnc3sc(-c4ccccn4)nn23)cc1	24%
75	c1coc(Cn2c(SCc3nc4ccccc4[nH]3)nnc2-c2cnccn2)c1	?
76	CC1CCN(S(=O)(=O)c2ccc(NC(=O)CSc3nnnn3C)cc2)CC1	5%
77	CS(=O)(=O)N1CCN(c2ncccn2)CC1	-3%
78	CC(=O)N(CC(=O)Nc1nn(-c2ccccc2)nc1C(N)=O)Cc1ccccc1	31%
79	CC1(O)c2ccccc2C(=O)N1Cc1ccccc1 (centres undefined)	13%
80	Nc1ncnc2c1nc(Br)n2[C@H]1O[C@H]2COP(=O)(O)O[C@H]2[C@@H]1O	13%
81	CCOC(=O)NC(NC(=O)OCC)C(=O)c1ccc(F)cc1	-12%
82	Cc1cc(C)c2[nH]c(=O)c(CN(Cc3ccco3)C(=O)C3CCCO3)cc2c1 (centres undefined)	44%
83	CCSc1sccc1C1C(C#N)=C(N)N(c2cccnc2)C2=C1C(=O)CC(C)(C)C2 (centres undefined)	39%
84	Nc1nc(CSc2ccccn2)nc(Nc2ccccc2)n1	-5%
85	CCOC(=O)c1cccc(NC(=O)CSc2nnc(-c3ccoc3C)n2CCOC)c1	89%
86	COc1cccc(N2CC(C(=O)Nc3ccc(C(=O)OC(C)C)cc3)CC2=O)c1 (centres undefined)	58%
87	COc1ccc(NC(=O)N(CCC(C)C)C(C)c2ccccn2)c(OC)c1 (centres undefined)	69%
88	CN1CC(=O)NC1=NC(=O)c1cc(F)c(F)cc1Cl	3%
89	Cc1ccc(N(C(C)C(=O)Nc2ccc(S(=O)(=O)N3CCOCC3)cc2)S(C)(=O)=O)cc1 (centres undefined)	39%
90	Cc1onc(-c2ccccc2Cl)c1C(=O)NCCN1CCOCC1	0%
91	CCOC(=O)CNC(=O)CSc1nnc(Cn2c(=O)sc3ccccc32)n1-c1ccccc1C	110%
92	CCc1nnc(NC(=O)C2CCCN(c3nc(C)cc(C)n3)C2)s1 (centres undefined)	11%
93	COCCOC(=O)C1=C(C)Nc2ncnn2C1c1ccc(F)cc1 (centres undefined)	4%
94	NC(=O)CSc1nnc(-c2ccc(S(=O)(=O)N3CCOCC3)cc2)n1CC1CCCO1 (centres undefined)	-2%
95	CCN=C1SC(CC(=O)Nc2sc3c(c2C#N)CCCC3)C(=O)N1CC (centres undefined)	38%
96	CCN(CC)CCN1C(=O)C(=O)/C(=C(/O)c2ccncc2)C1c1ccccc1 (centres undefined)	-9%
97	Cc1ccc2oc3c(c(=O)c2c1)C(c1cccs1)N(CCCN(C)C)C3=O (centres undefined)	14%
98	O=C(Nc1sc2c(c1C(=O)NCC1CCCO1)CCCC2)c1cccs1 (centres undefined)	39%
99	Cc1nnc(NC(=O)CCC(=O)N2CCC(C)CC2)s1	-4%
100	Cn1c(CCc2ccccc2)nnc1SCC(=O)N1CCCC1	4%

Following part
#	SMILES	AmpC inh no det
101	CCOC(=O)Cc1c(C)nc2c(-c3ccc(Cl)cc3)c[nH]n2c1=O	-10%
102	COc1ccc(NC(=O)Nc2ccc(N(C)C)cc2)cc1	7%
103	O=C(O)C1CCC(=O)N1C1CCCC1 (centres undefined)	-12%
104	CCOC(=O)c1ccc(N2C(=O)CC(C3CCCO3)C2=O)cc1 (centres undefined)	8%
105	Nc1c(S(=O)(=O)c2cccc(Cl)c2)c2nc3ccccc3nc2n1CCN1CCOCC1	-2%
106	Cc1ccc(N(CC(=O)NCC2CCCO2)S(C)(=O)=O)cc1Cl (centres undefined)	10%
107	C[C@@H](CN1CCC(Cc2ccccc2)CC1)[C@@H](O)c1ccc(O)cc1	13%
108	COC(=O)C1=C(N)Oc2cc(C)n(CC3CCCO3)c(=O)c2C1c1ccccc1 (centres undefined)	31%
109	Cn1c(=O)c2c(nc(CN3CCN(c4ccccc4F)CC3)n2CCCc2ccccc2)n(C)c1=O	149%
110	CCC(=O)Nc1ccccc1C(=O)N1CCN(Cc2ccccc2)CC1	-8%
111	COC(=O)c1cc2sc(Cl)cc2n1CC(=O)Nc1ccc(OC)c(OC)c1OC	97%
112	CC1CC(C)(C)NCCNC(C)CC(C)(C)NCCN1 (centres undefined)	-5%
113	COc1cccc(Nc2ncccc2C(=O)O)c1	-8%
114	CC(C)C(NC(=O)CN1C(=O)c2ccccc2S1(=O)=O)C(C)C	-6%
115	c1ccc(-c2nc(NC3CC3)nc(-n3ccnc3)n2)cc1	0%
116	Cc1csc(NC(=O)CSc2nncn2C)n1	33%
117	Cc1ccc2c(CN3CCN(CCO)CC3)cc(=O)oc2c1	-18%
118	O=C(O)CN(Cc1ccco1)S(=O)(=O)c1ccc(F)cc1	-12%
119	Cn1nnc2cc(C(=O)N3CCSCC3)ccc21	-10%
120	COc1ccc(-c2nc3c(c(=O)n(C)c(=O)n3C)n2CC2CC(c3ccccc3)=NO2)cc1OC (centres undefined)	113%
121	O=C(CCC(=O)N(c1ccccc1)C(C(=O)NC1CCCC1)c1ccncc1)Nc1cccnc1 (centres undefined)	34%
122	O=C(c1cccc(F)c1)N1CCC2(CCCN(c3ccncc3)C2)CC1	9%
123	CCCc1ncc(C(O)c2cccc(OC)c2OC)n1C (centres undefined)	0%

Bioassay records from PubChem.
